Bioassay records as filed in PubChem.
GIV Gai3 FP: GIV-Galpha-i interaction inhibition. Galpha-i3/FITC-GIV peptide fluorescence polarization, 90 min; active compounds read low; scaled: aluminum fluoride 0%, vehicle 100%. percent of control (FP), % (concentration not given with the values). hit rate 0.42% among 210,000. AID 1224905;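 active = replicate mean at 85% of control or lower, very high polarization wells dropped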;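 note: wells of about 15 µL received 100 nL stock; the first replicate is given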
Target sequence (P08753 whole entry, looked up): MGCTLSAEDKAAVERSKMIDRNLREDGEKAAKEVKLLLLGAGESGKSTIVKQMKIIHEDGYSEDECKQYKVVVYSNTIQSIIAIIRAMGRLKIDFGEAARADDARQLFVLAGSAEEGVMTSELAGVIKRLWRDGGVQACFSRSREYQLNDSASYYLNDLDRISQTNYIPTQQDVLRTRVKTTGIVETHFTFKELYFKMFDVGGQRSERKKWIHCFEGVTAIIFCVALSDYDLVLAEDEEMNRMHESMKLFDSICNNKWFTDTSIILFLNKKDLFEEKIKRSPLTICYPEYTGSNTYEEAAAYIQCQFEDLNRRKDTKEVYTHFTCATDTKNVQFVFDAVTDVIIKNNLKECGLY
The depositor's hits bear a star. The list is partial, so the mix of outcomes need not match the whole.

SMILES	GIV Gai3 FP
CC(NC(=O)C1CCN(c2nc3ccsc3c(=O)n2-c2ccc(F)cc2)CC1)c1ccc(F)cc1 (stereo not drawn)	103
CCCc1cc(C2CCCN2C(=O)c2cc(-c3ccco3)on2)no1 (stereo not drawn)	113
N#Cc1cc(C#N)c(SCC(=O)N2c3ccccc3Sc3ccccc32)nc1N	179
COCC(=O)Nc1cccc(-c2cc3ccccc3[nH]2)c1	101
Cc1ccc(Cl)cc1-n1ncc2c(NC(C)C)ncnc21	104
CC(=O)Nc1ccc(Nc2nc3nonc3nc2Nc2ccc(Br)cc2)cc1	106
COC(=O)c1ccc2c(=O)n(Cc3ccc(C(=O)NCCc4c[nH]c5ccccc45)cc3)c(=S)[nH]c2c1	105
Cc1nc(-c2cc(S(=O)(=O)NCc3ccc(F)c(Cl)c3)c(C)s2)cs1	109
CCCCOc1cccc(NC(=O)CSC2=C(C#N)C(c3ccccc3)C(C(=O)Nc3ccccc3OC)=C(C)N2)c1 (stereo not drawn)	112
O=C(Cc1nnc(NC(=O)Nc2ccccc2)s1)NCc1ccccc1	103
Cn1cc(C(=O)NCCc2cccs2)c(S(=O)(=O)N2CCSCC2)n1	106
CC1=C(c2ccc(Cl)cc2)S(=O)(=O)N=C1N1CCCN(C(=O)NC(C)(C)C)CC1	99
COc1ccc(C2=N/C(=C\c3ccc(OC(C)=O)c(OC)c3)C(=O)O2)c(Br)c1	99
Cc1noc(C)c1C1CCCN1Cc1ccccc1Br (stereo not drawn)	109
Cc1ccc([N+](=O)[O-])cc1S(=O)(=O)N(Cc1ccco1)CC1CCCO1 (stereo not drawn)	106
O=C(N1CCOCC1)C1(c2ccccc2)CCCC1	120
Cc1ccc(-n2ccc(=O)c(-c3nc(-c4cccc(Br)c4)no3)n2)cc1	96
COc1ccccc1N1CCN(S(=O)(=O)c2ccc(F)c(C(=O)Nc3ccc(Cl)cc3Cl)c2)CC1	109
Cc1ccc(NC(=O)c2cc(S(=O)(=O)N3CCc4ccccc43)ccc2F)cc1C	107
C=CCNc1nc(C2(C)CC3(CC(C)(C)OC3=O)C(=O)O2)cs1 (stereo not drawn)	114
CCOC(=O)c1c(C)n(S(=O)(=O)c2ccc(CC)cc2)c2ccc(NS(=O)(=O)c3ccc(CC)cc3)cc12	122
CCOC(=O)c1c(C)oc2ccc(N(C(=O)c3ccncc3)S(=O)(=O)c3ccc(Cl)cc3)cc12	116
O=C1CCCC2=C1C(c1ccc(Cl)cc1Cl)n1ncnc1N2 (stereo not drawn)	102
COc1ccc(C(=O)Nc2c(C)nc3sc(C)cn3c2=O)cc1	103
COc1ccc(CCn2c(-c3ccc4ccccc4c3)csc2=Nc2ccc(F)cc2)cc1OC	105
SMILES	GIV Gai3 FP
CN(C)c1nc(Oc2ccc(OCc3ccccc3)nn2)nc(N(C)C)n1	110
Cc1sc2ncnc(N3CCN(Cc4ccc5c(c4)OCO5)CC3)c2c1C	107
Fc1ccc2nc3[nH]c4ccccc4c3nc2c1	109
COc1c(Cl)cc(Cl)cc1C1Nc2ccc3ccccc3c2C2=C1C(=O)CC(C)(C)C2 (stereo not drawn)	107
COc1ccc(OC)c(CNC(=O)c2ccc(Oc3nccnc3Sc3ccccc3)cc2)c1	99
CC(=O)Nc1cc(-c2nc(-c3ccc4c(c3)ncn4C)no2)ccc1C	105
O=C(NCCSCc1ccccc1)c1ccc2c(=O)n(Cc3ccc4c(c3)OCO4)c(=S)[nH]c2c1	105
O=C(c1ccc2ccnc(N3CCN(c4ccc(Cl)cc4)CC3)c2c1)N1CCOCC1	105
CC(C(=O)N1c2ccccc2Sc2ccc(C(F)(F)F)cc21)N1C(=O)c2ccccc2C1=O (stereo not drawn)	121
CCc1c(C(=O)c2ccc(OC)cc2)oc2ccc3c(C)cc(=O)oc3c12	103
CCCS(=O)(=O)N1CCC(c2nc3cccnc3n2CCOC)C1 (stereo not drawn)	106
O=C(c1cccc([N+](=O)[O-])c1)C1CC2(NC1c1ccccc1)C(=O)Nc1ccccc12 (stereo not drawn)	107
COc1cc(/C=c2/sc3nc4cc(C)c(C)cc4n3c2=O)cc(OC)c1OC(C)=O	108
COc1cc(C2C=C(Nc3ccc(C)cc3)C(=O)N2c2ccc(C)cc2)ccc1O (stereo not drawn)	103
O=C(NCc1ccc2c(c1)OCO2)c1cccc(Oc2ccnc(-c3ccc(F)cc3)n2)c1	107
O=S(=O)(c1ccc(-c2cnc(C3CCC3)o2)s1)N1CCCCCC1	104
CCc1csc(C2CCCN(C(=O)C(C)(C)C)C2)n1 (stereo not drawn)	100
COC(=O)CNC(=O)C1COc2ccc(NC(=O)c3ccc(C)cc3)cc2C1 (stereo not drawn)	102
CCOc1ccc(NC(=O)N2CC(=O)N(CC(=O)Nc3cccc(Cl)c3C)c3ccccc32)cc1	109
CCOC(=O)C1=C(CSc2nc(C)c(C)c(C)c2C#N)OC(N)=C(C#N)C1c1ccc(F)cc1 (stereo not drawn)	106
CC(=O)Oc1ccc(C2C3=C(CC(C)(C)CC3=O)Nc3ccc4ccccc4c32)cc1 (stereo not drawn)	109
N#CCN(c1ccc2c(c1)OCCO2)S(=O)(=O)c1ccc2nncn2c1	98
O=C(NC1CCCC1)c1nc(C(=O)N2CCSCC2)cs1	100
O=C(CCc1nc(CSc2nnc(-c3ccncc3)o2)no1)Nc1ccc(Cl)cc1	107
Cc1cc(=O)oc2c1c(C(F)(F)F)nn2-c1ccc(Cl)cc1	102
SMILES	GIV Gai3 FP
O=C(c1ccc(Cl)cc1)N1CCc2c([nH]c3ccccc23)C1c1ccc2c(c1)OCO2 (stereo not drawn)	105
O=C(c1ccc2c(c1)OCO2)N1CCc2c([nH]c3ccccc23)C1c1ccc(F)cc1 (stereo not drawn)	105
Cc1cc(C)c(NC(=O)CSC2=C(C#N)C(c3cccs3)C3=C(CCCC3=O)N2)c(C)c1 (stereo not drawn)	100
Nc1ccccc1-c1nnc2n1CCCCC2	103
CCOC(=O)CSc1nc2c(sc(=S)n2-c2cccc(OC)c2)c2nc3ccccc3n12	102
O=C(c1ccc2c(=O)n(CCc3ccccc3)c(SCc3cccc([N+](=O)[O-])c3)nc2c1)N1CCOCC1	118
CCOC(=O)C1CCN(C(=O)C2CCN(c3cnc(N4CCSCC4)nc3)CC2)CC1	101
COc1ccc(C2=Nc3ccccc3NC(c3ccc([N+](=O)[O-])cc3)C2)cc1 (stereo not drawn)	105
CCc1c(C)c(C#N)c2nc3ccccc3n2c1N(C)C	105
O=C(c1nn2c(C(F)(F)F)cc(-c3ccco3)nc2c1Br)N1CCN(Cc2ccccc2)CC1	102
COc1ccccc1N1CCN(C(=O)Cn2c(=O)c3ccccc3n(C)c2=O)CC1	112
Fc1cc2nc(-c3ccccc3)c(-c3ccccc3)nc2cc1Cl	112
COCc1cc(C)nc2sc3c(=O)n(-c4ccc(C)cc4C)nnc3c12	95
CC12c3ccccc3C(c3ccccc31)C1C(=O)N(c3ccccc3Cl)C(=O)C12 (stereo not drawn)	108
O=S(=O)(c1cccc2cccnc12)N1CCc2nc(-c3ccccc3)ncc2C1	104
CCOc1c(N2CCC(C)CC2)c(=O)c1=O	97
Cc1ccc(CSc2nnc3c(S(=O)(=O)N4CCCCC4)cccn23)cc1	98
CCOC(=O)C1=C(N)OC2=C(C(=O)CC(C)(C)C2)C1c1ccc(OC)cc1 (stereo not drawn)	105
COc1ccccc1N1C(=O)c2ccccc2NC1c1cc(Cl)cc2c1OCOC2 (stereo not drawn)	110
Cc1nc2cc(C(=O)NCc3cccnc3)ccc2n1-c1ccc(Br)cc1	106
CC(=O)N(Cc1ccccc1)c1nc2ccccc2n(CC(=O)Nc2cccc(Cl)c2C)c1=O	106
O=CC12c3ccccc3C(c3ccccc31)C1C(=O)N(c3cccc4ccccc34)C(=O)C12 (stereo not drawn)	130
CC(=O)Nc1ccc(N2C(=O)/C(=C/c3ccc([N+](=O)[O-])cc3)C=C2c2ccccc2)cc1	117
Cc1ccc(NC(=O)N(C)CCc2noc(C(=O)NCc3ccc(Cl)cc3)n2)cc1	99
COc1ccccc1N1CCN(c2ncnc3sc(C(=O)NCCN4CCOCC4)c(C)c23)CC1	102
SMILES	GIV Gai3 FP
Cc1ccccc1N1CCN(C2=NC(=O)/C(=C\c3ccccc3)S2)CC1	106
COc1ccc(-c2cn3c4c(=O)n(C)c(=O)n(C)c4nc3n2-c2ccc(OC)cc2)cc1	104
CCCCN(C)c1ccc2nnc(CCc3nc(-c4ccccc4C)no3)n2n1	101
CCCC(=O)N1c2ccc(OC)cc2C2=C(SC(C(=O)OC)=C(C(=O)OC)C23SC(C(=O)OC)=C(C(=O)OC)S3)C1(C)C	99
COCCNC(=O)c1ccc(-n2c(SCC(=O)c3ccc(Br)cc3)nc3ccccc3c2=O)cc1	107
Cc1ccc(S(=O)(=O)c2cnc(N3CCN(c4cc(C)ccc4C)CC3)nc2N)cc1	105
O=S(=O)(c1ccc(Cl)cc1)N1CCN(c2ccc(N3CCCC3)nn2)CC1	98
c1ccc(-c2noc(-c3ccc(NC4CCCCC4)nc3)n2)cc1	99
Cc1ccccc1CN=C1Nc2ccccc2NC12CCCCCC2	100
Cc1ccc(CNS(=O)(=O)c2c(-c3nnc(C)o3)c(C)n(C)c2C)o1	105
Cc1nc2sccn2c(=O)c1NC(=O)CCC1CCCC1	101
CC(=O)Nc1cc(Cl)ccc1OCc1cc(=O)n2c3c(sc2n1)CCCC3	111
COc1cc([N+](=O)[O-])ccc1-c1ccc(/C=C2/SC(=S)N(C)C2=O)o1	100
CCOC(=O)c1[nH]c(C)c(CN(Cc2ccc(OC)cc2)S(=O)(=O)c2ccc(F)cc2)c1C	106
CCOc1ccc(C2=NN3C(C2)c2cccc(OCC)c2OC3c2ccc(SC)cc2)cc1 (stereo not drawn)	103
CCN1CCN(C(=O)c2cc3sc(C)c(CN4CCOCC4)c3[nH]2)CC1	103
COc1ccc(CCNC(=O)c2ccc3nc(-c4ccc(OC)c(OC)c4)c(-c4ccc(OC)c(OC)c4)nc3c2)cc1OC	104
Cc1ccc(-c2nc(CN3CCN(C(=O)Nc4ccc(C)c(C)c4)CC3)c(C)o2)cc1	99
Cc1ccc(F)cc1S(=O)(=O)NCCc1n[nH]c(Cc2ccc(F)cc2)n1	101
COCCCNS(=O)(=O)c1cc(-c2nc(C)cs2)n(CC(=O)N2CCCCC2)c1	98
CCc1ccccc1NS(=O)(=O)c1cc(-c2nc(C)c(C)s2)sc1C	100
COc1ccc(N2CCN(c3nccc4ccc(C(=O)NC5CCCC5)cc34)CC2)cc1	101
C#CCn1c2ccccc2c2nc3ccccc3nc21	113
O=C(CSc1nnc2c3ccccc3nc(-c3ccccc3)n12)NCC1CCCO1 (stereo not drawn)	100
O=S(=O)(c1ccccc1)N1CCC(c2noc(-c3ccccc3)n2)CC1	105

Three compounds out of the list, sorted by number of heavy atoms, rising.
SMILES	GIV Gai3 FP
Cc1nc2sccn2c(=O)c1NC(=O)CCC1CCCC1	101
CCc1ccccc1NS(=O)(=O)c1cc(-c2nc(C)c(C)s2)sc1C	100
COc1ccc(CCNC(=O)c2ccc3nc(-c4ccc(OC)c(OC)c4)c(-c4ccc(OC)c(OC)c4)nc3c2)cc1OC	104

(listing goes on)
SMILES	GIV Gai3 FP
Cc1ccc(C)c(NC(=O)CCc2nc(-c3ccc(S(=O)(=O)N4CCCC4)cc3)no2)c1	107
Cc1ccc(OCC(=O)Nc2ccc3[nH]c(=O)[nH]c3c2)c(-n2cnnc2)c1	107
C=CC(=O)Nc1ccc2c(c1)OCCOCCOCCOCCO2	109
O=C(NCc1ccccn1)c1cccc(-c2nc(-c3ccc(F)cc3)no2)c1	104
COC(=O)c1ccc2c(=O)n(CCN3CCOCC3)c(SCC(=O)Nc3cccc(C(F)(F)F)c3)nc2c1	116
c1csc(C2=NN(c3nc(-c4ccc5ccccc5c4)cs3)C(c3ccoc3)C2)c1 (stereo not drawn)	116
CCOc1ccc(-c2nn3c(=O)c(NC(=O)c4ccc(Cl)cc4)cnc3o2)cc1	106
CC(C)c1cc(C2CCCN2C(=O)c2ccco2)no1 (stereo not drawn)	104
O=C(c1ccc(Cl)c(Cl)c1)N1CCc2c([nH]c3ccccc23)C1	112
O=C(CN1CCCCC1c1nc(-c2cccs2)no1)NCc1cccs1 (stereo not drawn)	105
CCc1ccccc1N(C)S(=O)(=O)c1ccccc1-c1nc(-c2ccccc2)no1	103
CC1CCN(Cc2nnc(-c3cn(CC(=O)NC4CC4)c4ccccc34)o2)CC1	105
Cc1sc2c(=O)n(C3CC3)cnc2c1C(=O)NCCCN1CCOCC1	105
Cc1nc(-c2ccc(C)c(S(=O)(=O)NCC(=O)Nc3cccc(C)c3C)c2)no1	97
Cc1csc(-c2cc(S(=O)(=O)NCCC(C)C)cn2CC(=O)N2CCCCC2)n1	101
CCOC(=O)C1=CN(Cc2ccc(F)cc2)C=C(C(=O)OCC)C1c1ccc(OCC)c(OC)c1	101
O=C(CSc1nc2ccccc2c(=O)n1CC1CCCO1)c1ccc(Br)cc1 (stereo not drawn)	121
Cc1ccc(NC(=O)N2CCCC(c3nnc(C(=O)Nc4ccc(F)cc4)s3)C2)cc1C (stereo not drawn)	104

Filtered by structure: those above containing a thiophene ring, fused or not (13)
SMILES	GIV Gai3 FP
CC(NC(=O)C1CCN(c2nc3ccsc3c(=O)n2-c2ccc(F)cc2)CC1)c1ccc(F)cc1 (stereo not drawn)	103
Cc1nc(-c2cc(S(=O)(=O)NCc3ccc(F)c(Cl)c3)c(C)s2)cs1	109
Cn1cc(C(=O)NCCc2cccs2)c(S(=O)(=O)N2CCSCC2)n1	106
Cc1sc2ncnc(N3CCN(Cc4ccc5c(c4)OCO5)CC3)c2c1C	107
O=S(=O)(c1ccc(-c2cnc(C3CCC3)o2)s1)N1CCCCCC1	104
Cc1cc(C)c(NC(=O)CSC2=C(C#N)C(c3cccs3)C3=C(CCCC3=O)N2)c(C)c1 (stereo not drawn)	100
COCc1cc(C)nc2sc3c(=O)n(-c4ccc(C)cc4C)nnc3c12	95
COc1ccccc1N1CCN(c2ncnc3sc(C(=O)NCCN4CCOCC4)c(C)c23)CC1	102
CCN1CCN(C(=O)c2cc3sc(C)c(CN4CCOCC4)c3[nH]2)CC1	103
CCc1ccccc1NS(=O)(=O)c1cc(-c2nc(C)c(C)s2)sc1C	100
c1csc(C2=NN(c3nc(-c4ccc5ccccc5c4)cs3)C(c3ccoc3)C2)c1 (stereo not drawn)	116
O=C(CN1CCCCC1c1nc(-c2cccs2)no1)NCc1cccs1 (stereo not drawn)	105
Cc1sc2c(=O)n(C3CC3)cnc2c1C(=O)NCCCN1CCOCC1	105
